Screens: PubChem, several laboratories
Mtb growth: M. tuberculosis H37Rv growth inhibitors, H37Rv strain (AID 1626); M. tuberculosis H37Rv growth inhibition; higher % means a stronger effect; inhibition, % at 10 µM; hits with a dose series show IC50 in µM; 220,000 compounds, 0.95% hits;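 active = confirmed in a dose series; inconclusive = inhibition above 80% but not taken into the dose series; inactive = below 80% or under 30% at every dose of the series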;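 also: bacteria incubated seven days before Alamar blue readout; 0% = bacteria only wells and 100% = bacteria with antibiotic wells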
YopH inh: YopH tyrosine phosphatase inhibitors, primary screen, biochemical, fluorescence Ex485/Em525. inhibition, %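 (about 10 µM by stock and volumes)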. 140,000 compounds, 0.16% hits;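 active = inhibition of 50% or more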;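 also: controls were vehicle for no effect and minimum signal wells for full effect; inactives centre near -20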
Mtb betalactam: beta-lactam sensitization of Mtb H37Rv, H37Rv; M. tuberculosis H37Rv growth with meropenem, percent inhibition; hits of this screen are not shown here; inhibition, % at 25 µM; 330,000 compounds, 0.27% hits;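 active = about 74% or more and at least 40 points above the plate without the antibiotic, then above 30% in a dose series; inconclusive = first-round hits that could not be retested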;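 also: growth measured after seven days incubation then overnight dye step; 0% = bacteria only wells and 100% = bacteria with antibiotic; twin plates without the antibiotic show which effects depend on it; some results filed as inactive read as strong as hits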
Arbovirus anti: antivirals against arbovirus infection, primary screen, cell-based, full library, 10K replicate subset. AID 1251, 2008. 200,000 compounds, 0.37% hits. inhibition, % at 10 µM. arbovirus infection cell-based antiviral screen;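 active = inhibition from about 30%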;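 also: bluetongue infection of BSR cells; cell survival read as ATP light after 72 h; 0% = infected wells without compound and 100% = uninfected wells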
RecA splice inh: Mtb RecA intein splicing inhibitors, primary screen, biochemical, fluorescence, HTS | Protein RecA (Mycobacterium tuberculosis (strain ATCC 25618 / H37Rv)), P9WHJ3 | cell-free RecA intein splicing | inhibition, %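 (about 9 µM by stock and volumes)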 | 290,000 compounds, 0.75% hits | AID 2221, 2009; in the data active = inhibition above about 30%; inconclusive = no clear call, values can overlap the other calls;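 also: 0% = vehicle wells and 100% = reference inhibitor control wells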
Target sequence (P9WHJ3 whole entry, looked up, canonical isoform): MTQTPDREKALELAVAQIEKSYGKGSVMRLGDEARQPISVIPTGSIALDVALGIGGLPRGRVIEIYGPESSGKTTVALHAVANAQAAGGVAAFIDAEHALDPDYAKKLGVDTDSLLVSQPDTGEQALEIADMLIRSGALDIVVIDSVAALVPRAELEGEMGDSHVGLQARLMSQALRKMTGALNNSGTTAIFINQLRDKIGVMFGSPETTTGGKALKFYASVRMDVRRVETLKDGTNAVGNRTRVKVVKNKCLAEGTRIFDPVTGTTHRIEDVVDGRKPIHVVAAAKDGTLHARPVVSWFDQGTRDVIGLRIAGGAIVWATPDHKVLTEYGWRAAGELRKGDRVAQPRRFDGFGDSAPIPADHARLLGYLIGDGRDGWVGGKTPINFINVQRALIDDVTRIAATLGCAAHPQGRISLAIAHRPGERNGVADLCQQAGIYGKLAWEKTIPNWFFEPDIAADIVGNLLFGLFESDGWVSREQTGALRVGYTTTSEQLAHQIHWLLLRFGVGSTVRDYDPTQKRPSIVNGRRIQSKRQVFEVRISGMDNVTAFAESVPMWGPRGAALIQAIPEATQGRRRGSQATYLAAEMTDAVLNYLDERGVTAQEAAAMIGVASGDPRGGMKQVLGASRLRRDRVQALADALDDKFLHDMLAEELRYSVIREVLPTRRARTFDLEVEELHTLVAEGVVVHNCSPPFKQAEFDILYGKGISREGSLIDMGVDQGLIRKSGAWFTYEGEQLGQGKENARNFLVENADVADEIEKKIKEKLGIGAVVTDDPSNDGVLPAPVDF
Arbovirus anti repeat: also measured in Arbovirus anti; calls as there; inhibition, %; measured here: 10K subset replicate screen; many hits read low in the repeat;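 first of two repeat runs on a subset; 0% = infected and 100% = uninfected wells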
* marks the source's active call; other numbers are inactive results; ? = inconclusive; . = not tested or not shown.

SMILES	Mtb growth	YopH inh	Mtb betalactam	Arbovirus anti	RecA splice inh	others
CN1CCC2(CC1)NC(=O)C1=C(CN(C)CC1)N2	-6%	-7	-8	3	2.5
CC(C)Nc1nc(NC(C)C)nc(Oc2ccc(/C=N/O)cc2)n1	-9%	-17	-3	11	-1.3
O=c1nc2ccccc2c2n1CC(CN1CCN(c3cccc(Cl)c3)CC1)N2 (centres undefined)	18%	-37	-1	19	0.9
CCCCCOc1ccccc1C(=O)NCCCC(=O)O	9%	-42	-13	3	-0.6
Cc1cccc(N2CC(C(=O)Nc3nccs3)CC2=O)c1C (centres undefined)	.	.	-2	.	0.0
Cc1ccc(C(=O)Nc2ccnc(-c3ccncc3)n2)cc1	-2%	.	2	0	0.1
COc1ccc(N(CC(C)C)S(=O)(=O)c2nnc(NC(=O)c3ccco3)s2)cc1	.	.	-8	.	3.8
C=C(C)c1nc2cc(OC)c(OC)cc2c(=O)o1	2%	-32	31	0	0.1
CC(=O)NC(CCS(C)(=O)=O)C(=O)Nc1cccc2ccccc12 (centres undefined)	43%	-21	9	-2	6.0	Arbovirus anti repeat=-1
CCCC1(c2ccccc2)NC(=O)N(CC(=O)Nc2cc(C)ccc2OC)C1=O (centres undefined)	.	.	5	.	-1.8
O=C(N/N=C/c1ccoc1)c1ccccc1O	.	.	-1	.	-1.9
C=CCn1c(SCC(=O)NC2CCS(=O)(=O)C2)nnc1-c1ccc(Cl)cc1 (centres undefined)	.	.	-7	.	-0.4
CCc1nnc(NS(=O)(=O)c2ccc(N=CC3=C(O)CC(C)(C)CC3=O)cc2)s1	8%	.	48	0	-1.4
CC(C)(C)OC(=O)N1CCCN(C(=O)Nc2cccc(Cl)c2)CC1	1%	.	-10	.	11
C/C(CC(=O)Nc1ccc(N(C)C)cc1)=N\NC(=O)c1ccc([N+](=O)[O-])cc1	.	.	4	.	-3.3

Reprinted from the part before: 2 entries, then new ones.
SMILES	Mtb growth	YopH inh	Mtb betalactam	Arbovirus anti	RecA splice inh	others
CC(C)(C)OC(=O)N1CCCN(C(=O)Nc2cccc(Cl)c2)CC1	1%	.	-10	.	11
C/C(CC(=O)Nc1ccc(N(C)C)cc1)=N\NC(=O)c1ccc([N+](=O)[O-])cc1	.	.	4	.	-3.3
CN1C(=O)/C(=C/C=C2\SCCN2C)SC1=S	-9%	-28	.	-3	-3.3
CCOC(=O)C(NC(=O)c1ccccc1)(OCc1ccc(F)cc1)C(F)(F)F (centres undefined)	12%	9	0	2	1.3
Cc1ccc2c(c1)C1CC(C)(O2)N(c2cccc(C(=O)N3CCN(c4ccccn4)CC3)c2)C(=O)N1 (centres undefined)	.	.	8	.	-3.3
Cc1cccc(C(=O)NC2CCN(CC(=O)N3CCOCC3)CC2)c1	-11%	-42	0	-4	-4.1
O=C(Nc1ccccc1N1CCN(c2ccccc2)CC1)c1cccc(F)c1	15%	-40	-6	0	-1.2
C/C(CC(=O)Nc1ccc(Cl)cc1)=N\NC(=O)C(=O)NCCO	-6%	-21	?	7	-0.6
O=C(CSc1nc(C(F)(F)F)cc(=O)[nH]1)N1CCOCC1	.	.	1	.	-2.9
COC(CNC(=O)c1ccc(-n2c(=S)[nH]c3ccccc3c2=O)cc1)OC	-3%	.	5	1	-2.2
CCC(C(=O)OCC(=O)Nc1ccccc1-c1ccccc1)c1ccccc1 (centres undefined)	4%	-13	3	2	4.2
COC(OC)c1ccc(C#N)c(=O)[nH]1	-1%	.	0	4	-1.7
CCOc1ccc(S(=O)(=O)N(CC(=O)NCC(F)(F)F)Cc2ccco2)cc1	3%	-26	5	8	0.9
CCN1CCc2c(sc(NC(=O)CN3C(=O)c4ccccc4C3=O)c2C(N)=O)C1	9%	.	2	8	-1.9
C/C(O)=C(\N=Nc1cc(C)ccc1O)C(N)=O	0%	.	2	-5	-2.2
Cc1noc(C)c1C(=O)OCC(=O)Nc1cc(S(=O)(=O)N2CCOCC2)ccc1Cl	0%	.	-8	2	4.1
CC(C)C12CN3CC(C(C)C)(CN(C1)C3c1ccc3c(c1)OCO3)C2=O (centres undefined)	6%	13	2	-2	1.5
N#Cc1nc(-c2ccccc2)oc1NCCCn1ccnc1	-9%	.	1	4	0.4
Cc1ccc(OCC(=O)NNC(=S)NC(=O)C2CC2)c(C)c1	.	.	99	.	5.1
CN(C)S(=O)(=O)c1ccc(N2CCCC2)c(C(=O)OCC(=O)NC2CCCCC2)c1	.	.	-7	.	-0.5
Cc1ccc(C)c(Nc2c([N+](=O)[O-])cc(C(=O)N3CC(=O)Nc4ccccc43)cc2[N+](=O)[O-])c1	17%	0	90	0	4.1
COc1ccc(-c2c[n+](CC(=O)c3ccccc3)c3n2CCCCC3)cc1	4%	.	-11	.	1.2
CC(=O)Nc1ccc2c(c1)C(=O)N(c1cccc(C)c1)C2=O	.	.	10	.	-1.6
Cc1ccc(/C=C/C(=O)c2c(C)nc3ccccn23)cc1	0%	-30	5	13	12
COc1ccc(NC(=O)C2CCOC(C)(C)C2)cc1 (centres undefined)	-4%	.	1	.	-0.7
CCC(C)[C@H](NC(=O)Nc1cccc(OC)c1)C(=O)OC (some centres undefined)	-5%	-36	-12	-2	-1.7
COc1ccc(-c2oc3ccccc3c2C(=O)Oc2ccccc2)cc1	.	.	73	.	4.7
CCOC(=O)c1ccccc1NC(=O)Cn1cnc2c(cnn2-c2ccc(OC)cc2)c1=O	.	-5	6	.	.
CN(C)S(=O)(=O)c1ccc(C(=O)Nc2cc(=O)n(C)c(=O)n2C)cc1	-9%	-11	-3	5	1.3
CCOc1ccc(S(=O)(=O)Nc2ccccc2C(=O)N2CCCC2)cc1	4%	.	-1	7	1.3
CC(=O)c1cnc(-c2ccccc2Cl)s1	4%	.	0	-1	2.7
Cc1cc(C)c(-c2cc(NC(=O)COC(=O)c3ccc(CO)cc3)n(-c3ccccc3)n2)cc1C	4%	-20	1	-1	4.1
Cn1c(=O)c2c(ncn2CC(O)CNc2ccc(Br)cc2)n(C)c1=O (centres undefined)	-11%	-21	-6	11	1.1
CCC1(CC)Cc2ccccc2-c2nc(CCl)[nH]c(=O)c21	.	.	43	.	15
O=c1/c(=C/c2ccco2)sc2nc(-c3ccccc3Br)nn12	4%	-22	3	-1	.
S=c1nc(-c2ccc(Br)cc2)[nH]c2ccccc12	.	.	73	.	-0.2
Cc1cccc(C)c1-n1c(C)nn(Cc2ccc([N+](=O)[O-])cc2)c1=O	6%	.	-5	5	0.9
CCOC(=O)Cc1c(C)nc2c(-c3cccc(Br)c3)cnn2c1C	8%	-29	1	11	-9.6
CCn1cc(C(=O)N2CCN(C(=O)c3ccco3)CC2)c2cc(OC)c(OC)cc2c1=O	-7%	12	-7	-4	0.1
CCCS(=O)(=O)N1CCCC(C(=O)c2cccc(Cl)c2)C1 (centres undefined)	-18%	.	0	-4	0.2
COc1ccc(Cl)cc1NC(=O)CN(C)C(=O)Cn1c(=O)oc2ccccc21	.	.	-9	.	-0.1
c1cncc(CSc2nnc3ccc(-c4cccs4)nn23)c1	7%	.	-2	2	2.6
C=CCc1ccccc1OCC(O)CN(C(C)C)C(C)C (centres undefined)	-5%	-8	18	-3	-0.2
Cc1ccc(N2CC(C(=O)OCC(=O)c3ccc([N+](=O)[O-])cc3)CC2=O)cc1 (centres undefined)	.	.	7	.	1.5
CC1(C)Cc2c(C#N)c(NCCN3CCOCC3)nc(-c3ccco3)c2CO1	-1%	7	-9	15	.
COc1ccccc1NC(=O)N1CCc2c([nH]c3ccccc23)C1C(F)(F)F (centres undefined)	10%	.	1	.	.
Cc1cc(C)cc(NC(=S)/C(=C(\[O-])c2ccc(Cl)cc2Cl)[n+]2ccccc2)c1	7%	.	-1	4	12
CCOC(=O)c1cc(C(=O)OCC)c(=O)[nH]c1N1CCCCC1	32%	.	95	6	-1.2
CS(=O)(=O)N1CCN(CC2CC3C=CC2C3)CC1 (centres undefined)	-12%	8	3	-6	-2.0
O=C(NCc1ccco1)c1cc(S(=O)(=O)N2CCCC2)ccc1Cl	.	.	-3	.	-0.3
O=C(Nc1ccc(CN2CCOCC2)cc1)c1ccc(Br)cc1	.	.	1	.	-0.3
CCC(=O)N1CCN(C(=O)CC)C1c1ccccc1	-6%	-39	-1	3	-3.0
Cc1cc(C)n2cc(CSC3=NCCS3)nc2n1	-2%	-54	-13	-3	-1.0
O=C(NCc1ccccc1)C1Nc2ccc(OC(F)(F)F)cc2C2C=CCC12 (centres undefined)	-4%	.	-16	.	1.0
Cc1ccc(NC(=O)Cn2nnc(C(=O)NCCc3ccccc3)c2N)cc1Cl	.	.	-3	.	1.7
Cc1ccc(Nc2nc(N)nc(CN3CCN(c4ccccc4F)CC3)n2)cc1	?	-42	89	4	-0.3
O=C(/C=C/c1cccc([N+](=O)[O-])c1)NCCN1C(=O)S/C(=C\c2ccc(F)cc2)C1=O	1%	-10	3	-4	3.4
Cc1cccc(NC(=O)CSc2nnc3ccc(-c4ccccn4)nn23)c1	.	.	-16	.	-4.1
O=C(Nc1ccc(N2C(=O)c3cccc4cccc(c34)C2=O)cc1)c1ccc(N2CCCCC2)c([N+](=O)[O-])c1	-11%	-17	11	-2	0.6
Cc1ccccc1NC(=O)C(=O)NCCc1ccccc1	5%	-21	5	4	0.6
Cn1cc(Br)c(C(=O)NNC(=O)c2ccccc2)n1	3%	-18	6	1	-2.6
COc1cccc(N2CCN(c3ccc(S(=O)(=O)N4CCCC4)cc3)CC2)c1	-8%	-16	.	0	.
Additional entries follow:
SMILES	Mtb growth	YopH inh	Mtb betalactam	Arbovirus anti	RecA splice inh	others
CC1CN=C(NC(=O)c2cccc([N+](=O)[O-])c2)S1 (centres undefined)	.	.	0	.	9.4
O=S(=O)(CCN1CCOCC1)c1ccc(Cl)cc1	.	.	2	.	-1.5
COc1ccc(NC2CCCN(C(=O)c3ccc(OC)cc3OC)C2)cc1 (centres undefined)	.	.	-3	.	-5.0
Cc1cc2nc(C)n(CCCNC(=O)Nc3ccc(F)cc3)c2cc1C	-10%	-7	?	1	-0.2
CCOC(=O)C1=C(C)N(C)C(=S)NC1c1cccc(Cl)c1Cl (centres undefined)	31%	.	99	2	6.6
COCCNC(=S)N/N=C(\C)c1cccc([N+](=O)[O-])c1	-2%	-27	8	-1	-1.3
Cc1ccc(/C=N/NC(=O)c2nnn(-c3nonc3N)c2CN(C)C2CCCCC2)cc1	.	.	2	.	-1.2
COc1cccc(-c2cc(C(F)(F)F)nc(-n3ccc([N+](=O)[O-])n3)n2)c1	-4%	.	-1	7	-1.8
CCOCCn1c(N2CCN(c3ccccc3)CC2)nc2c1c(=O)n(C)c(=O)n2C	1%	1	2	4	2.5
O=C1CN(C(=O)COC(=O)CNC(=O)c2ccc(Cl)cc2)c2ccccc2N1	2%	.	-3	1	0.1
O=C(NC(=S)Nc1ccc(-c2nc3ncccc3o2)cc1)c1ccccc1F	-7%	.	4	-1	4.4
CCOC(=O)NC(N(O)c1cccc(Cl)c1)C(Cl)(Cl)Cl (centres undefined)	-2%	.	4	.	6.1

Entries from the list above that contain a furan ring, fused or not, in the order listed:
SMILES	Mtb growth	YopH inh	Mtb betalactam	Arbovirus anti	RecA splice inh	others
COc1ccc(N(CC(C)C)S(=O)(=O)c2nnc(NC(=O)c3ccco3)s2)cc1	.	.	-8	.	3.8
O=C(N/N=C/c1ccoc1)c1ccccc1O	.	.	-1	.	-1.9
CCOc1ccc(S(=O)(=O)N(CC(=O)NCC(F)(F)F)Cc2ccco2)cc1	3%	-26	5	8	0.9
COc1ccc(-c2oc3ccccc3c2C(=O)Oc2ccccc2)cc1	.	.	73	.	4.7
O=c1/c(=C/c2ccco2)sc2nc(-c3ccccc3Br)nn12	4%	-22	3	-1	.
CCn1cc(C(=O)N2CCN(C(=O)c3ccco3)CC2)c2cc(OC)c(OC)cc2c1=O	-7%	12	-7	-4	0.1
CC1(C)Cc2c(C#N)c(NCCN3CCOCC3)nc(-c3ccco3)c2CO1	-1%	7	-9	15	.
O=C(NCc1ccco1)c1cc(S(=O)(=O)N2CCCC2)ccc1Cl	.	.	-3	.	-0.3

Not all compounds are listed; count on the stated rates, not on these rows.
